MEKK2 WT-MEK5 = raises or lowers MEK5 binding to wildtype human MEKK2 PB1 domain; 1.1% of 290,000 active; AID 1531; Q9Y2U5; bead flow cytometry, Alexa488-MEK5 binding to MEKK2 WT; actives lie on both sides; binding response (% of control), % at 10 µM; in the data active = binding response below about 67% or above about 130%
VIM-2 inh = blocks Pseudomonas aeruginosa VIM-2 metallo-beta-lactamase. purified VIM-2, nitrocefin hydrolysis, epi-absorbance fluorescence. inhibition, % at 5.6 µM. 0.89% of 290,000 active. AID 1527;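 active = inhibition above the mean of all tested compounds plus 3 SD, cutoff set per screening run, cut at about 7.5% in these data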;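 note: red hydrolysis product quenches plate fluorescence so inhibitors raise well fluorescence; 0% = enzyme with DMSO and 100% = DMSO without enzyme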
NALP1 yeast inh = inhibitors of NALP1 inflammasome in yeast | 0.61% of 280,000 active | inhibition, % at 10 µM | S. cerevisiae NALP1/ASC/caspase-1 growth, X-gal OD620, 72 h; in the data active = inhibition mostly above about 24%, no sharp cut-off; inactive = mostly below about 32%; note: some compounds called inactive have numbers as strong as hits
MEKK2mut PB1 HTS = signal of MEK5 binding to mutant human MEKK2 PB1 domain; bead flow cytometry, Alexa488-MEK5 binding to MEKK2 mutant; percent response, % at 10 µM; 0.35% of 290,000 active; in the data active = percent response above about 24%, passing the limit was not always enough; note: inactives centre near 1; some results filed as inactive read as strong as hits; reference of the scale not given here
PfM18AAP inh = blocks P. falciparum M18 aspartyl aminopeptidase; 1.2% of 290,000 active; AID 1822; inhibition, % at 7.35 µM; recombinant PfM18AAP, H-Glu-NHMec fluorogenic cleavage;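 active = inhibition above the campaign mean inhibition over all tested compounds plus 3 SD, cut at about 28% in these data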;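 note: 0% = plate median of test compound wells and 100% = 2 mM ZnCl2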
Numbers without * were called inactive; . = no result given; & = joins results of further samples; [ ] = remark or other dose. An excerpt, so the mix of outcomes need not match the whole.

nr | Compound | NALP1 yeast inh | MEKK2 WT-MEK5 | MEKK2mut PB1 HTS
1 | CCN(CC)CCNC(=O)c1ccc(N)cc1 | 26 | 101 | 4
2 | Nc1ccn([C@@H]2CS[C@H](CO)O2)c(=O)n1 | 5 | 99&102 | 0&1
3 | O=C(CSc1nnc(Nc2ccccc2F)s1)NCc1ccco1 | 23 | 105 | 3
4 | O=C(C1CCCCC1)N1CC(=O)N2CCc3ccccc3C2C1 (stereo unspecified) | 19 | 99 | -2
5 | CC(=O)N1CCN(C(c2ccccc2)c2ccccc2)CC1 | 13 | 83 | -5
6 | Nc1nc2c(ncn2COCCO)c(=O)[nH]1 | 23 | 101 | 3
7 | OCCN(CCO)c1nc(N2CCCCC2)c2nc(N(CCO)CCO)nc(N3CCCCC3)c2n1 | 19 | 99 | -3
8 | O=C(COC(=O)c1cnc(Cl)c(Cl)c1)NCc1ccco1 | -8 | 104 | 5

nr | PfM18AAP inh | VIM-2 inh
1 | 2 | -3.6
2 | 4 | -3.1
3 | 13 | -3.3
4 | 1 | -3.3
5 | -11 | -0.1
6 | -2 | -1.8
7 | -4 | 7.1
8 | 3 | -0.6

Copied from the list.
MEKK2mut PB1 HTS with cpd 8 = 5
NALP1 yeast inh with cpd 5 = 13
PfM18AAP inh with cpd 2 = 4
VIM-2 inh with cpd 1 = -3.6

Quoted at random: 5 entries already listed
nr | Compound | NALP1 yeast inh | MEKK2 WT-MEK5 | MEKK2mut PB1 HTS
6 | Nc1nc2c(ncn2COCCO)c(=O)[nH]1 | 23 | 101 | 3
2 | Nc1ccn([C@@H]2CS[C@H](CO)O2)c(=O)n1 | 5 | 99&102 | 0&1
8 | O=C(COC(=O)c1cnc(Cl)c(Cl)c1)NCc1ccco1 | -8 | 104 | 5
3 | O=C(CSc1nnc(Nc2ccccc2F)s1)NCc1ccco1 | 23 | 105 | 3
7 | OCCN(CCO)c1nc(N2CCCCC2)c2nc(N(CCO)CCO)nc(N3CCCCC3)c2n1 | 19 | 99 | -3

nr | PfM18AAP inh | VIM-2 inh
6 | -2 | -1.8
2 | 4 | -3.1
8 | 3 | -0.6
3 | 13 | -3.3
7 | -4 | 7.1

Additional records.
nr | Compound | NALP1 yeast inh | MEKK2 WT-MEK5 | MEKK2mut PB1 HTS
9 | CN1Cc2c(N)cccc2C(c2ccccc2)C1 (stereo unspecified) | 16 | 95 | 4
10 | CCCCOc1cccc(C2C(C(=O)c3ccc(C)o3)=C(O)C(=O)N2Cc2ccco2)c1 (stereo unspecified) | 7 | 108 | 7
11 | CC(C)OC(=O)C(C)(C)Oc1ccc(C(=O)c2ccc(Cl)cc2)cc1 | 9 | 100 | 3
12 | C/C(=N\NC(N)=S)c1cc(-c2ccccc2)c(-c2ccccc2)s1 | -3 | 98 | 3
13 | COc1ccc(NC(=O)/C(C#N)=C/c2ccc(Br)o2)cc1 | 30 | 99 | 1
14 | CN(C)S(=O)(=O)c1ccc(NC(=O)Cc2ccc(S(=O)(=O)N3CCOCC3)s2)cc1 | 9 | 94 | -6
15 | CC(C)(O)c1ccc2c(c1)CCC1C(C)(C(=O)O)CCCC21C (stereo unspecified) | 2 | 109 | 5
16 | O=C(Cc1ccc(S(=O)(=O)N2CCOCC2)s1)NCCC(c1ccccc1)c1ccccc1 | -14 | 100 | 1

nr | PfM18AAP inh | VIM-2 inh
9 | 2 | 1.5
10 | 10 | -2.2
11 | 5 | -3.6
12 | 6 | -2.4
13 | -2 | -3.2
14 | 5 | -1.6
15 | . | .
16 | 5 | 0.4

Reprinted from the part before: 3 entries, then new ones.
nr | Compound | NALP1 yeast inh | MEKK2 WT-MEK5 | MEKK2mut PB1 HTS
14 | CN(C)S(=O)(=O)c1ccc(NC(=O)Cc2ccc(S(=O)(=O)N3CCOCC3)s2)cc1 | 9 | 94 | -6
15 | CC(C)(O)c1ccc2c(c1)CCC1C(C)(C(=O)O)CCCC21C (stereo unspecified) | 2 | 109 | 5
16 | O=C(Cc1ccc(S(=O)(=O)N2CCOCC2)s1)NCCC(c1ccccc1)c1ccccc1 | -14 | 100 | 1
17 | O=C(CCCN1CC=C(n2c(=O)[nH]c3ccccc32)CC1)c1ccc(F)cc1 | 20&6 | 94&103 | 6&7
18 | CCC(C)(C)C(=O)O[C@H]1C[C@@H](C)C=C2C=C[C@H](C)[C@H](CC[C@@H]3C[C@@H](O)CC(=O)O3)[C@H]21 | 14 | 100 | 4
19 | CN1[C@@H]2CC(OC(=O)[C@H](CO)c3ccccc3)C[C@H]1[C@@H]1O[C@@H]12 (stereo partly specified) | 16&17 | 100&102&97 | -2&2&2
20 | C[N+]1(C)CC[C@H](OC(=O)[C@@](O)(c2ccccc2)C2CCCC2)C1 | 16 | 102 | 2
21 | CCCn1c(SCC(=O)NC(=O)NCc2ccco2)n[nH]c1=O | 21 | 105 | 7
22 | Cc1nnc(SCC2=C(C(=O)O)N3C(=O)C(NC(=O)Cn4cnnn4)C3SC2)s1 (stereo unspecified) | -11 | 104 | 6
23 | C/C(CC(=O)Nc1cccc(Cl)c1Cl)=N\NC(=O)c1ccccc1C | 10 | 4.0*[inhibitor] | -18

nr | PfM18AAP inh | VIM-2 inh
14 | 5 | -1.6
15 | . | .
16 | 5 | 0.4
17 | 1&0 | 0.8&-2.3
18 | 7 | -2.9
19 | -1&-8 | -2.7&-3.9
20 | 3 | -0.9
21 | 9 | -2.3
22 | 21 | 4.3
23 | -2 | -2.8
